# Screens as filed in PubChem BioAssay.
# T cruzi repl: T. cruzi replication inhibition; T. cruzi beta-gal in NIH3T3, luminescence, 90 h; inhibition, % (no concentration beside the values); 300,000 compounds, 1.4% hits; AID 1885;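 active means mean inhibition across valid replicates above about 55%, limit read from the data; inconclusive means mean below that limit but half or more replicates reach it; inactive means mean below it, under half of replicates reach it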;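 further: signal also drops with host cell toxicity which is not excluded here; 0% = plate median of DMSO wells and 100% = zero luminescence signal; higher percent means less beta-gal luminescence so fewer parasites; stock transfer was 50 nL into about 50 µL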
# Beta apoptosis: blocks beta cell apoptosis. INS-1E cytokine-induced death, ATP luminescence, 48 h; percent of positive-control rescue, neutral wells zero. AID 435005. 300,000 compounds, 0.8% hits. protection from apoptosis, % (concentration not given with the values);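 active means all replicates at 75% or more, or half of them and the mean; inconclusive means half reach 75% but not the mean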;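 further: 0% = cytokine-treated negative control wells and 100% = positive control rescue; higher means more ATP so stronger rescue from cytokine killing; wells of about 40 µL received 100 nL stock; the first replicate is given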
# FGF22 binding: shifts melting point of recombinant human FGF22; Q9HCT0; recombinant FGF22 thermal shift, SYPRO orange fluorescence; percent of sucrose octasulfate shift, DMSO zero; calls only at 9.99 µM; 340,000 compounds, 1.5% hits; AID 651658;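 active means melting point raised past a set limit in the mean and every replicate; inconclusive means no clear call; three in four hits are not shown here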
# Target sequence (Q9HCT0 whole entry, looked up): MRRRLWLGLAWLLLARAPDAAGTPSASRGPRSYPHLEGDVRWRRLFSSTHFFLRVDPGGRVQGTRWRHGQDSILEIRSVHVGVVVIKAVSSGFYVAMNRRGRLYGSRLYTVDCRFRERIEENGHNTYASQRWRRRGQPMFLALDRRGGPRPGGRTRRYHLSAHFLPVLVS
# MLL AF4-AF9 inh: MLL-AF4/AF9 protein interaction inhibition | AlphaScreen, biotin-AF4 peptide binding to FLAG-AF9 | inhibition, % at 10 µM | 350,000 compounds, 0.47% hits | AID 651704;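 active means every replicate reaching a set inhibition limit, whatever the replicate mean, cut at about 25% in these data; inconclusive means mean inhibition reaches that limit but some replicates miss it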;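 further: 0% = plate neutral control median and 100% = total signal loss; the record names both 10 and 1 µM as test concentration; the first replicate is given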
# ALR H2O2 inh: human ALR oxidase inhibition via reduced H2O2; purified ALR, DTT oxidation, H2O2 HRP-luminol luminescence; inhibition, % (no concentration beside the values); AID 485317; 290,000 compounds, 3.8% hits;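 active means mean and each replicate at 75% or more; inconclusive means only one of the two met; inactive means neither met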;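 further: stock transfer was 7.5 nL into about 7.5 µL; 0% = neutral wells and 100% = wells with inactivated enzyme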
# Target sequence (P55789 whole entry, looked up): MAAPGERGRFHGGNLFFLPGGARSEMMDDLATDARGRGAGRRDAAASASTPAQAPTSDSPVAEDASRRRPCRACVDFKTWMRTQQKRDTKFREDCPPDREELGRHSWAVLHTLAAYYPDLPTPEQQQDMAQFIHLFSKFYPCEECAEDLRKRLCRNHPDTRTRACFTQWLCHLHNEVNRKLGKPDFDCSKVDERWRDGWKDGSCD
# RanGTP-Impb inh: disruptors of Ran-importin-beta complex formation – biochemical, FRET, CFP-Ran, YFP-importin-beta, homogeneous, primary screen | cell-free CFP-Ran/YFP-importin-beta FRET ratio | inhibition, % (concentration not given with the values) | 300,000 compounds, 1.1% hits;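 active means most replicates above 15%; inconclusive means exactly half above 15%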;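 further: 0% = DMSO wells and 100% = Ran loaded with GDP instead of GTP; wells of about 40 µL received 100 nL stock; the first replicate is given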
# Calb FLC: affects C. albicans growth with fluconazole; C. albicans CaCi-2 (fluconazole-resistant clinical isolate) + fluconazole, Alamar Blue growth, 48 h; growth inhibition, % (concentration not given with the values); 300,000 compounds, 0.57% hits; AID 1979;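 active means most replicates above 75%; inconclusive means exactly half above 75%; inactive means most below 75%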;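 further: all wells also contain fluconazole at 8 µg/ml as a sub-toxic cotreatment; 0% = median of DMSO wells and 100% = median of geldanamycin control wells; wells of about 8 µL received 7.5 nL stock; the first replicate is given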
# rRNA inh HTS: inhibits bacterial ribosomal RNA function over humanized ribosomes | E. coli WT GFP vs humanized-ribosome RFP mutants, fluorescence, 24 h; stronger effect = lower value; DMSO median 0, no signal -100 | GFP signal change (wild-type ribosome), % (concentration not given with the values) | 350,000 compounds, 1.6% hits | AID 720706;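 active means significant combined selectivity score with lowered wild-type GFP, culture density cut under 30%, mutant RFP and density less affected; inactive means any of these conditions unmet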; further: one replicate is shown; some compounds called inactive have numbers as strong as hits
# rRNA inh HTS OD600: also measured in rRNA inh HTS; calls as there; OD600 change, %; measured here: OD600 growth;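 optical density of the mix in the first replicate; 0 = DMSO median and -100 = no signal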
# rRNA inh HTS RFP: further read-out of rRNA inh HTS, marked with its call; RFP signal change, %; measured here: RFP humanized mutant strains;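 first replicate; 0 = DMSO median and -100 = no signal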
# * hit, by the source's call; i = inactive; ? = inconclusive; · = no result given.
1	Cn1c(/C(C#N)=C(\O)c2ccccc2Cl)nc2ccccc21
2	CCN(CC)S(=O)(=O)c1cc(OCC(N)=O)c(C)cc1Cl
3	COc1cc(C(=O)OCC(=O)c2cc(C)n(C)c2C)cc(NC(=O)c2ccco2)c1OC
4	Cc1ccc(C2=N/C(=C/N3CCOCC3)C(=O)O2)cc1
5	Cc1cccc(OCCCn2c(=O)sc3ccccc32)c1
6	CNc1cc(CS(=O)c2ccccc2)nc(-c2ccccc2)n1 (stereo not drawn)
7	Cc1cccc(C(=O)Nc2ccccc2C(=O)OCC(=O)Nc2ccc(C#N)cc2)c1
8	O=C(COc1ccccc1)Nc1nc2cc3c(cc2s1)OCCO3

Screen / compound no. | 1 | 2 | 3 | 4 | 5 | 6 | 7 | 8
FGF22 binding | i | i | · | · | · | · | i | i
ALR H2O2 inh | -1 | -2 | -1 | 0 | -4 | -4 | -6 | -10
T cruzi repl | -29 | -6 | -5 | 0 | 9 | -11 | -12 | -8
Beta apoptosis | · | -3 | 18 | -5 | -25 | -1 | 3 | -7
rRNA inh HTS OD600 | 6 | -6 | · | · | · | · | -4 | 17
MLL AF4-AF9 inh | 0.5 | -4.3 | · | · | · | · | 3.1 | -1.6
rRNA inh HTS | 0 | -5 | · | · | · | · | 1 | 9
Calb FLC | -5 | 0 | ? | -6 | 1 | -9 | -19 | -3
rRNA inh HTS RFP | -0.7 | -1.0 | · | · | · | · | 10 | -2.6
RanGTP-Impb inh | -0.3 | 2.8 | 1.6 | -4.8 | -4.4 | ? | -1.7 | 4.2

9	CCOc1ccc(-c2nc(C#N)c(N3CCN(Cc4ccccc4)CC3)o2)cc1
10	O=C(O)c1cccc(S(=O)(=O)NNc2ccccc2C(F)(F)F)c1
11	O=C(Nc1ccc2c(c1)OCCO2)C1CCN(C(=O)c2ccc(Br)cc2)CC1
12	Cc1cc(C)cc(NC(=O)CCc2ccc(C)o2)c1
13	O=C(O)c1cc(-c2ccc(/C=N/N3C(=O)C4C5C=CC(CC5)C4C3=O)o2)ccc1Cl (stereo not drawn)
14	CC(C)CC(C(=O)O)N1C(=O)C2C3CC(C2C1=O)C1C(c2ccccc2)c2sc(=O)[nH]c2SC31 (stereo not drawn)
15	COc1ccc(Oc2ccc(C(F)(F)F)cc2NC(=O)c2ccc(F)cc2)cc1
16	O=S(=O)(NCCc1ccncc1)c1ccc(F)cc1

Screen / compound no. | 9 | 10 | 11 | 12 | 13 | 14 | 15 | 16
FGF22 binding | i | i | · | i | i | · | i | i
ALR H2O2 inh | -3 | -2 | -1 | 26 | -5 | · | 3 | -11
T cruzi repl | 39 | -2 | -16 | 8 | -14 | -12 | 29 | 2
Beta apoptosis | 8 | -6 | -4 | · | -2 | -13 | 2 | -3
rRNA inh HTS OD600 | 8 | 15 | · | -6 | -5 | · | -11 | -3
MLL AF4-AF9 inh | 53* | 3.9 | · | 4.8 | -1.2 | · | -2.5 | -2.3
rRNA inh HTS | 9 | 3 | · | -7 | 6 | · | -8 | 6
Calb FLC | -2 | 19 | 49 | 19 | 17 | -3 | 3 | -6
rRNA inh HTS RFP | 3.0 | -0.2 | · | -3.6 | -2.6 | · | -7.4 | -1.2
RanGTP-Impb inh | 2.1 | 3.2 | ? | 1.4 | 7.4 | 100* | 1.0 | 1.6

# In a second layout: 10 of the compounds above.
cpd	mol	FGF22 binding	ALR H2O2 inh	T cruzi repl	Beta apoptosis	rRNA inh HTS OD600	MLL AF4-AF9 inh	rRNA inh HTS	Calb FLC	rRNA inh HTS RFP	RanGTP-Impb inh
4	Cc1ccc(C2=N/C(=C/N3CCOCC3)C(=O)O2)cc1	·	0	0	-5	·	·	·	-6	·	-4.8
5	Cc1cccc(OCCCn2c(=O)sc3ccccc32)c1	·	-4	9	-25	·	·	·	1	·	-4.4
6	CNc1cc(CS(=O)c2ccccc2)nc(-c2ccccc2)n1 (stereo not drawn)	·	-4	-11	-1	·	·	·	-9	·	?
7	Cc1cccc(C(=O)Nc2ccccc2C(=O)OCC(=O)Nc2ccc(C#N)cc2)c1	i	-6	-12	3	-4	3.1	1	-19	10	-1.7
8	O=C(COc1ccccc1)Nc1nc2cc3c(cc2s1)OCCO3	i	-10	-8	-7	17	-1.6	9	-3	-2.6	4.2
9	CCOc1ccc(-c2nc(C#N)c(N3CCN(Cc4ccccc4)CC3)o2)cc1	i	-3	39	8	8	53*	9	-2	3.0	2.1
10	O=C(O)c1cccc(S(=O)(=O)NNc2ccccc2C(F)(F)F)c1	i	-2	-2	-6	15	3.9	3	19	-0.2	3.2
11	O=C(Nc1ccc2c(c1)OCCO2)C1CCN(C(=O)c2ccc(Br)cc2)CC1	·	-1	-16	-4	·	·	·	49	·	?
12	Cc1cc(C)cc(NC(=O)CCc2ccc(C)o2)c1	i	26	8	·	-6	4.8	-7	19	-3.6	1.4
13	O=C(O)c1cc(-c2ccc(/C=N/N3C(=O)C4C5C=CC(CC5)C4C3=O)o2)ccc1Cl (stereo not drawn)	i	-5	-14	-2	-5	-1.2	6	17	-2.6	7.4

# The list goes on.
17	CC1CCN(Cc2ccc(NC(=O)C3CCN(c4nnc(-n5cccc5)s4)CC3)cc2)CC1
18	COc1ccccc1N1CCN(C(=O)c2coc(=O)c(Br)c2)CC1
19	COc1cc(/C=N/NC(=O)c2cccnc2)ccc1OS(=O)(=O)c1ccc(F)cc1
20	COc1ccccc1-c1c(C)oc2c(CN3CCOCC3)c(O)ccc2c1=O
21	CCOC(=O)c1[nH]c2ccccc2c1NC(=O)NC1CCCCC1
22	COc1cc(/C=C/C(=O)O)cc(S(=O)(=O)NC2CC2)c1OC
23	Nc1c(Cl)cc(C2=NCCn3nc4cc(C(F)(F)F)ccc4c32)cc1Cl
24	Nc1c(C(=O)Nc2cccc(C(=O)O)c2)sc2nc3c(cc12)CCCC3

Screen / compound no. | 17 | 18 | 19 | 20 | 21 | 22 | 23 | 24
FGF22 binding | i | i | · | i | · | · | i | i
ALR H2O2 inh | -8 | 12 | -16 | -24 | 23 | -18 | 2 | ·
T cruzi repl | 4 | -2 | 2 | 6 | 16 | -14 | 24 | -16
Beta apoptosis | 2 | -2 | 3 | -7 | -4 | -3 | 5 | -6
rRNA inh HTS OD600 | 9 | 14 | · | 16 | · | · | -53 | -4
MLL AF4-AF9 inh | 12 | 3.4 | · | -1.7 | · | · | 6.9 | -2.7
rRNA inh HTS | -1 | 14 | · | -7 | · | · | -28 | -10
Calb FLC | 16 | 12 | -14 | 7 | 1 | -6 | 3 | 19
rRNA inh HTS RFP | 1.5 | 2.0 | · | 3.1 | · | · | -6.2 | -1.5
RanGTP-Impb inh | -0.6 | 5.1 | -3.3 | -5.9 | 1.5 | 13 | -1.4 | -0.8

# Looked up above:
# `CCOC(=O)c1[nH]c2ccccc2c1NC(=O)NC1CCCCC1` in Calb FLC has 1
# `COc1cc(/C=C/C(=O)O)cc(S(=O)(=O)NC2CC2)c1OC` in RanGTP-Impb inh has 13

# Next part
25	O=C(NC1CCCCC1)C1CCCN(S(=O)(=O)c2cnc[nH]2)C1 (stereo not drawn)
26	Cc1cccc(NC(=O)CN2C(=O)N/C(=C/c3cc(C)n(C(C)C)c3C)C2=O)c1
27	O=C(CCSc1ccc(Cl)cc1)NC12CC3CC(CC(C3)C1)C2
28	CCN(CC)CCN(Cc1cc2cc3c(cc2[nH]c1=O)OCO3)C(=S)NCC(C)C
29	CCN1CCN(c2ccc(S(=O)(=O)N3CCOCC3)cc2NC(=O)/C=C/c2ccc(OC)cc2OC)CC1
30	CCCCn1c(N)c(N(Cc2ccccc2OC)C(=O)CSCC(=O)Nc2cccc(C)c2)c(=O)[nH]c1=O
31	COc1ccc(OC(C)C(=O)NCCC2=CCCCC2)cc1 (stereo not drawn)

Screen / compound no. | 25 | 26 | 27 | 28 | 29 | 30 | 31
FGF22 binding | i | i | · | i | i | i | i
ALR H2O2 inh | -18 | -5 | -1 | · | · | 1 | -12
T cruzi repl | -2 | ? | 28 | 9 | 15 | 1 | 8
Beta apoptosis | 0 | -7 | 7 | 1 | · | -2 | 1
rRNA inh HTS OD600 | -1 | -2 | · | 0 | 5 | 12 | -51
MLL AF4-AF9 inh | 2.5 | 1.9 | · | 1.5 | 12 | -1.1 | -1.0
rRNA inh HTS | 6 | 0 | · | 2 | -3 | 11 | -33
Calb FLC | -6 | -10 | ? | -6 | 2 | -8 | -16
rRNA inh HTS RFP | 0.6 | -6.1 | · | -3.1 | 1.8 | 1.7 | -11
RanGTP-Impb inh | 0.6 | -0.7 | 3.0 | -23 | 0.2 | -0.4 | -0.4

# Some of the compounds tested; the hit share may differ from the screen's.
